# Compound activity deposited in PubChem by National Center for Advancing Translational Sciences (NCATS).
# Rango dissoc inh: inhibition of RanGTP-driven Rango-importin beta dissociation; Biochemical FRET Rango-importin beta, RanGTP-induced dissociation; Potency, µM (top dose mostly 46.1 µM), for inactives: at the highest dose activity change, negative = inhibition; 340,000 compounds, 0.071% hits; AID 540253; active means falling FRET ratio curve, often poorly fitted, with flat reads before Ran was added; inconclusive means other falling curves, or compound fluorescence or quenching; inactive means flat or rising ratio curve;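 further: potency means the concentration at half of the fitted maximal effect; % of control where 0% means no effect; nearly all actives have a fitted effect of over 45% in size; -100% = wells without RanGTP and RCC1; the record marks most hits as doubtful in a second field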
#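 Rango/importin beta premix (0.1/0.25 uM final), PBS + 1 mM DTT + 0.02% Tween-20 + 0.1% BSA; cpd 5 min RT; FRET pre-read; + RanGTP-RCC1 (0.6 uM Ran, 2 mM GTP, 0.2 uM RCC1); 45 min RT; FRET post-read, ex 430, em 486/530 nm.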
# GLA inh pH 4.5: blocks human alpha-galactosidase A at pH 4.5; activity change, negative = inhibition, % at 105 µM; purified enzyme, 4-MU-alpha-Gal fluorescence, pH 4.5; P06280; 230,000 tested, under 10 active; inconclusive = small, poorly fitted or top-dose-only inhibition, or a rising curve; inactive = flat fitted curve, though single readings scatter; no compound was filed as active;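 further: 0% = full activity with enzyme and -100% = basal without enzyme; dose as in the result columns while the protocol names 77 µM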
# Target sequence (P06280 whole entry, looked up): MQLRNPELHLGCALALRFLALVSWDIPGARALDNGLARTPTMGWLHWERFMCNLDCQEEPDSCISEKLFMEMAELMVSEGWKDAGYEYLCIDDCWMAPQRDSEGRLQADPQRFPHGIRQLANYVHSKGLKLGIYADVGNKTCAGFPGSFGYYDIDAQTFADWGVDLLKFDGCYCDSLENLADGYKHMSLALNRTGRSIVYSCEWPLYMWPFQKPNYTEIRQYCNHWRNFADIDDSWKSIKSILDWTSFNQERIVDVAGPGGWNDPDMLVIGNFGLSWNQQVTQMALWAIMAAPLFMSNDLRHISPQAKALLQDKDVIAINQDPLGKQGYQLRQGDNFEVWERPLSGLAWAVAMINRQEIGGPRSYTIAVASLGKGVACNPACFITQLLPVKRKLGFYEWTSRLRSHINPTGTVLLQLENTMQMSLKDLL
# Rango-impB inh: Rango-importin beta binding inhibition | Q14974 | Rango CFP/YFP FRET sensor + importin beta, 45 min | Potency, µM (top dose mostly 92.2 µM), without a hit: at the highest dose inhibition of complex formation | 340,000 compounds, 0.031% hits | AID 540263; active = rising FRET ratio curve, often small or poorly fitted; inconclusive = mostly compound fluorescence or quenching in the first reads; inactive = flat curves in all reads;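 further: potency means the concentration at half of the fitted maximal effect; 0% = DMSO wells and 100% = buffer wells lacking importin beta; nearly all actives have a fitted effect of over 15% in size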
#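 Inhibition scored from the CFP 486 nm/YFP 530 nm FRET ratio 45 min after adding 0.125 microM importin beta to 50 nM Rango biosensor preincubated 5 min with compound (room temperature, PBS with DTT, Tween-20, BSA). No-importin wells as positive control.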
# miR-21 reporter: miR-21 reporter, rising signal | HeLa miR-21 FLuc reporter, luciferase, 48 h | Potency, µM (doses to about 38.3 µM), inactives show at the highest dose reporter change, positive = more light | 340,000 tested, under 10 active; active = well fitted rising curve with a large enough effect; inconclusive = small, poorly fitted or top-dose-only effect; inactive = no such curve, though single readings can be large or run the other way;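 further: % of control where 0% means no effect; miR-21 action dims this reporter so a rising signal means less miR-21 action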
#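 HeLa cells endogenously expressing miR-21, stably carrying CMV-driven firefly luciferase with a downstream miR-21 binding site, 2000 cells/well. Titrations up to approximately 40 uM, 48 hours; luciferase luminescence read.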
# Starred values were filed as active, the others as inactive; ? = inconclusive; . = no result given; & = joins results of further samples.
no.	canonical_smiles	miR-21 reporter	Rango-impB inh	Rango dissoc inh	GLA inh pH 4.5
1	Cc1ccc(S(=O)(=O)n2cnc3ccccc32)c(C)c1	-1.2%	3.7%	7.1%	9.0
2	CCOc1ccc2nc(NC(=O)/C=C/c3ccc4c(c3)OCO4)sc2c1	-5.0%	-1.0%	-6.4%	0.4
3	CCS(=O)(=O)N1CCN(C(=O)c2ccccc2[N+](=O)[O-])CC1	2.0%	-1.1%	14.6%	6.9
4	O=C1C2C3CC(C2C(=O)N1c1cccc(Cl)c1)[C@H](O)C3O (some centres undefined)	-0.3%	-1.0%	0.9%	4.2
5	NC(=O)CN(c1ccc(Oc2ccccc2)cc1)S(=O)(=O)c1ccccc1	7.6%	-2.9%	-2.4%	.
6	COc1ccc(S(=O)(=O)N2CCN(C(=O)C3COc4ccccc4O3)CC2)cc1 (centres undefined)	.	3.8%	6.0%	.
7	COc1ccc(C(=O)NCCCCCC(=O)N/N=C/c2ccco2)cc1OC	-3.1%	-1.5%	-7.6%	-10.5
8	CCOC(=O)c1cnc(-n2nc(C)cc2C)nc1NNc1cc(-c2ccccc2)nc(C)n1	-4.6%	.	.	1.6
9	O=C(OCC1COC(c2ccccc2)(c2ccccc2)O1)c1ccccc1 (centres undefined)	.	1.5%	-16.4%	.
10	CC(C)CCN(C(=O)Nc1ccccc1)C(C)c1cccs1 (centres undefined)	3.7%&2.5%	0.7%	1.4%	-2.2
11	NC(=O)C1CCN(c2ncc(C(F)(F)F)cc2Cl)CC1	-5.9%	-0.5%	2.3%	-0.7
12	CC(C)n1cc(CNC(=O)C2CCC(=O)N(Cc3ccccc3F)C2)cn1 (centres undefined)	4.8%	4.9%	4.1%	.
13	O=C(c1cccs1)N1CCc2c([nH]c3ccccc23)C1c1ccccn1 (centres undefined)	-7.8%	?	-25.4%	1.8
14	COc1ccc(CN(CC(=O)NCc2ccccc2)C(=O)CCC(=O)Nc2cc(C)ccn2)cc1	-0.8%	-0.5%	10.8%	.
15	CN(C)C(=O)c1cc(Br)ccc1Cl	0.2%	1.5%	-10.4%	2.3
16	COc1ccc(NC(=O)CN2C(=O)c3ccccc3Sc3ccc(C(=O)N4CCOCC4)cc32)c(OC)c1	-8.4%&0.6%	-0.1%	-6.3%	-4.5
17	O=C(CSc1nnc(-c2cccnc2)o1)Nc1ccc(Br)cc1	-9.9%	0.8%	-10.2%	.
18	COc1ccc(C(=O)NC2CC2)cc1OC1CCN(Cc2ccc(Cl)cc2)CC1	-0.7%	1.5%	0.1%	.
19	CCCC(=O)OCC(=O)Nc1cc(Cl)ccc1[N+](=O)[O-]	-1.1%	-2.1%	-7.5%	-3.6
20	CC(Sc1ncnc2sccc12)C(=O)Nc1ccc(S(N)(=O)=O)cc1 (centres undefined)	.	-6.8%	-14.2%	.
21	Cc1ccc(N2CCCn3c2nc2c3c(=O)n(CCN3CCOCC3)c(=O)n2C)cc1	-5.5%	.	.	3.0
22	Cc1nnsc1C(=O)N/N=C/c1ccccc1Cl	3.6%	-4.8%	1.3%	?
23	Cc1cc(C)c(NC(=O)CSc2nc(=O)n3cc(C)ccc3n2)c(C)c1	.	?	-1.3%	.
24	O=C1SCCc2c1n(Cc1ccccc1)c1ccccc21	-9.4%	0.6%	7.0%	3.3
25	CCCOc1ccc(C2=CSC3=NCCN23)cc1	8.2%	3.1%	-1.6%	.
26	O=C(CSc1nnc2n1CCCCC2)Nc1ccc(N2CCOCC2)cc1	0.0%	-1.4%	10.7%	19.2
27	Cc1ccc(NC(=O)/C=C/c2ccco2)cc1S(=O)(=O)N1CCCCCC1	.	?	-27.2%	.
28	NS(=O)(=O)c1cccc(NC(=O)COC(=O)c2cc([N+](=O)[O-])ccc2N2CCCC2)c1	.	-4.4%	-11.2%	.
29	CCOC(=O)C1=C(C)NC(C)=C(C(=O)OCC)C1C(=O)OCC(=O)NC1CCCCC1	.	-3.0%	-5.3%	.
30	N#C/C(=C\c1ccc(O)cc1)C(=O)NCc1ccccc1	-0.6%	?	?	.
31	Cc1ccn(-c2cccc(-n3ccc(C)n3)n2)n1	-65.8%	-0.3%	9.3%	-1.7
32	O=C(COC(=O)c1cc(=O)[nH]c2ccccc12)NCc1ccccc1	.	0.0%	5.6%	.
33	CC(O)Cn1c(N2CCCC2)nc2c1c(=O)[nH]c(=O)n2C (centres undefined)	-2.7%	-0.6%	0.6%	.
34	OC(c1cc(-c2cccc(Cl)c2)nc2ccccc12)C1CCCCN1 (centres undefined)	.	5.0%	-5.2%	.
35	Cc1nnc(N2CCN(Cc3ccccc3)CC2)[nH]c1=O	0.3%	2.8%	13.0%	-5.0
36	CC(OC(=O)CCOc1ccccc1)C(=O)NC1CC1 (centres undefined)	.	-2.2%	11.6%	.
37	CC(C)(C)N1CC(C(=O)Nc2ccc(C#N)cc2)CC1=O (centres undefined)	-0.2%	0.2%	1.8%	.
38	Cc1ccc(C(=O)N2CCN(S(=O)(=O)c3ccccc3)CC2)cc1	-0.2%	?	21.9%	2.7
39	Cc1ccc(NC(=O)N2CCC(NC(=O)c3ccccc3C)CC2)cc1	-6.7%	2.0%	18.1%	9.5
40	Cc1cccc(N2CCN(C(=O)c3cc(S(=O)(=O)N(C)C)ccc3N3CCCC3)CC2)c1C	-3.3%	-4.9%	-7.0%	-2.4
41	Cc1cccc(NC(=O)c2ccc(COc3ccc(Cl)cc3Cl)o2)n1	3.9%	-2.8%	-11.5%	-7.7
42	CCn1ncc(Br)c1C(=O)Nc1ccccc1OC	-10.8%	-0.8%	3.5%	1.2
43	CCN(CC(=O)Nc1ccc(NC(C)=O)cc1)C(=O)/C=C/c1c(C)nn(-c2ccc(F)cc2)c1Cl	.	0.3%	7.8%	.
44	CN1C(=O)CC2(CC(=O)N(Cc3ccccc3)C2)C1=O (centres undefined)	-4.0%	-0.3%	4.2%	-0.9
45	O=C(Nc1ccccc1)c1ccc(-c2ccccc2C(F)(F)F)o1	-72.8%	-14.5%	9.2%	-18.2
46	CCOC(=O)COc1cc(O)c2c(=O)cc(-c3ccccc3)oc2c1	0.2%	-2.8%	-15.8%	-6.3
47	NC(=O)c1ccc[n+](CC(=O)c2ccc(Br)cc2)c1	4.2%	4.4%	24.1%	-9.2
48	C[C@]1(C(=O)O)C=C[C@@H](Cc2ccccc2)N1C(=O)c1ccccc1	-2.6%	-1.2%	0.9%	-7.7
49	CC(=NC1CCCCC1)C1=C(O)c2ccccc2C1=O	-44.6%	-0.9%	-4.0%	-6.8
50	Cc1onc(-c2ccccc2)c1C(=O)Nc1c(C)n(C)n(-c2ccccc2)c1=O	-1.6%	0.2%	1.5%	-2.3
51	COc1ccc(S(=O)(=O)NC(C)C(=O)NCc2cccnc2)cc1C (centres undefined)	.	4.0%	22.2%	.
52	CC(C)N(C(=O)c1nn(C)c2c1CSc1ccccc1-2)C1CCCCC1	0.0%	0.8%	10.1%	.
53	Cc1ccc(CNC(=O)COC(=O)c2ccc(Cl)c(N)c2)cc1	-2.8%	4.3%	14.8%	8.2
54	CC(=O)N(C)c1ccc(NCc2cc(=O)oc3cc(C)c(O)cc23)cc1	3.9%	1.5%	-8.9%	.
55	COC(=O)c1sc(C(C)(C)C)cc1CS(=O)(=O)c1ccccn1	-6.3%	-0.1%	-6.0%	-2.4
56	Cc1ccnc(SCc2cc(=O)c(OC(=O)c3ccccc3)co2)n1	0.0%	-3.7%	15.9%	-14.8
57	COc1cccc(C2CC(C(F)(F)F)n3nc(C(=O)Nc4c(C)n(C)n(-c5ccccc5)c4=O)cc3N2)c1 (centres undefined)	0.3%	-3.1%	5.8%	3.3
58	Cc1nc2ccccc2n1C(=O)N1CCOCC1	-5.5%	0.3%	-8.2%	-10.8
59	CN1CCN(C(=O)c2ccc3c(c2)N(C)C(=O)/C(=C/c2cccc(Cl)c2)S3)CC1	12.8%	0.7%	-4.2%	.
60	c1cc2c(cc1Oc1nc(N3CCOCC3)nc(N3CCOCC3)n1)OCO2	-1.8%	-0.6%	16.3%	-3.0

# The last 2 records of the part above lead into the next.
no.	canonical_smiles	miR-21 reporter	Rango-impB inh	Rango dissoc inh	GLA inh pH 4.5
59	CN1CCN(C(=O)c2ccc3c(c2)N(C)C(=O)/C(=C/c2cccc(Cl)c2)S3)CC1	12.8%	0.7%	-4.2%	.
60	c1cc2c(cc1Oc1nc(N3CCOCC3)nc(N3CCOCC3)n1)OCO2	-1.8%	-0.6%	16.3%	-3.0
61	COc1cc(NC(=O)CN2CCN(C(=O)C3CCCO3)CC2)c(OC)cc1Cl (centres undefined)	3.3%	1.4%	-1.5%	.
62	O=[N+]([O-])c1ccccc1/C=N/Nc1nnc(-c2ccccc2)c(-c2ccccc2)n1	-5.9%	2.2%	11.8%	-0.1
63	O=C(Nc1ccnn1C1CCN(C(=O)c2c(F)cccc2F)CC1)C1CC1	0.2%	-0.2%	18.2%	.
64	CC1CC(=O)N(c2ccc(C(C)C)cc2)C(=O)C1	-1.9%	0.0%	1.3%	.
65	Cc1ccccc1N/C(SCc1cccc(Br)c1)=C(/C#N)C(N)=O	-6.9%	0.4%	-16.2%	2.4
66	COc1ccccc1-c1nnc(SC(C)C(=O)Nc2ccc(C(N)=O)cc2)o1 (centres undefined)	.	-1.4%	13.2%	.
67	COc1ccccc1C(=O)OCC(=O)NC12CC3CC(CC(C3)C1)C2	.	-4.1%	-9.9%	.
68	CN1c2ccccc2C(=O)C(=C2SCCCS2)S1(=O)=O	-8.5%	0.6%	6.7%	?
69	Cc1ccc(S(=O)(=O)/N=C(\Nc2cc(C)on2)c2ccc(Cl)cc2)cc1	-14.7%	-2.2%	4.4%	4.3
70	Cc1nc2cc(S(=O)(=O)N(C)C)ccc2n1-c1ccccc1	-6.9%	-0.1%	8.6%	-5.6
71	CCC1CCCCN1C(=O)CN1C(=O)CSC1=O (centres undefined)	0.1%	-1.2%	5.0%	1.8
72	CC(C)(C)[C@@H]1COC(=O)[C@@H](NC(=O)OCC2c3ccccc3-c3ccccc32)C/C=C\C[C@@H](CC(=O)NCCO)C(=O)N1	.	-5.0%	12.0%	.
73	CCOC(=O)C1=C(COC(=O)c2ccc([N+](=O)[O-])s2)NC(=O)NC1C (centres undefined)	.	0.4%	21.1%	.
74	C(=N\N=C\c1cccnc1)/c1cccnc1	-7.3%	-3.7%	10.8%	3.1
75	CN(CC(=O)Nc1ccc(N2CCOCC2)cc1)C(=O)C12CC3CC(CC(C3)C1)C2	.	0.3%	4.6%	.
76	CN1CCN(CC(=O)C23CC4CC(CC(C4)C2)C3)CC1	-8.0%	0.7%	0.0%	5.2
77	CCc1ccc(/C=N/NC(=O)c2cc(C)on2)s1	-29.7%	3.4%	-0.5%	-0.6
78	CCN(Cc1nc(-c2ccccc2)no1)C(=O)COc1cccc(OC)c1	-0.7%	2.8%	-9.0%	.
79	CCOc1cc(/C=N/NC(=O)c2ccncc2)ccc1OC(=O)c1ccccc1	2.1%	4.1%	-9.7%	.
80	Cc1ccc(NC(=O)c2nc[nH]c2C(=O)N[C@@H](C)C(=O)OC(C)(C)C)cc1	19.4%	-1.4%	-8.7%	-4.2
81	Cc1cc(C)nc(SCNC(=O)c2ccc(F)cc2)n1	-0.6%	0.7%	0.6%	4.3
82	COc1ccc(CCn2c(=N)c(C(=O)NCC3CCCO3)cc3c(=O)n4ccccc4nc32)cc1OC (centres undefined)	-9.5%	?	-24.4%	.
83	O=C(Nc1ccc(CN2CCOCC2)cc1)c1cccc(-c2cc3ccccc3oc2=O)c1	-6.7%	-1.5%	21.2%	-20.9
84	CCOc1ccc(/C=N/OCC(=O)NCc2ccc3c(c2)OCO3)cc1OC	-1.5%	-0.7%	0.6%	1.5
85	CS(=O)(=O)c1cccc(C(=O)OCC(=O)c2ccc3c(c2)OCCO3)c1	.	3.6%	15.8%	.
86	CCOc1cc(/C=C2\N=C(SCC)SC2=O)cc([N+](=O)[O-])c1OC(C)=O	-0.5%	2.6%	8.4%	-3.7
87	COc1ccc2cc(C#N)c(SCC(=O)NNC(=O)Cc3ccccc3)nc2c1	-2.2%	?	-20.2%	-2.6

# The list is partial; the hit share may differ from the screen's.
